High-throughput results deposited in PubChem BioAssay by several laboratories.
MLL AF4-AF9 inh – inhibitors of AF4 peptide binding to AF9, primary screen, biochemical, AlphaScreen, biotin-AF4 peptide, FLAG-AF9, single point. actives 0.47% (n = 350,000). Protein AF-9 (Homo sapiens), P42568. inhibition, % at 10 µM. AID 651704, 2012;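 active means every replicate reaching a set inhibition limit, whatever the replicate mean, cut at about 25% in these data; inconclusive means mean inhibition reaches that limit but some replicates miss it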;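 further: 0% = plate neutral control median and 100% = total signal loss; the record names both 10 and 1 µM as test concentration; the first replicate is given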
Target sequence (P42568 whole entry, looked up): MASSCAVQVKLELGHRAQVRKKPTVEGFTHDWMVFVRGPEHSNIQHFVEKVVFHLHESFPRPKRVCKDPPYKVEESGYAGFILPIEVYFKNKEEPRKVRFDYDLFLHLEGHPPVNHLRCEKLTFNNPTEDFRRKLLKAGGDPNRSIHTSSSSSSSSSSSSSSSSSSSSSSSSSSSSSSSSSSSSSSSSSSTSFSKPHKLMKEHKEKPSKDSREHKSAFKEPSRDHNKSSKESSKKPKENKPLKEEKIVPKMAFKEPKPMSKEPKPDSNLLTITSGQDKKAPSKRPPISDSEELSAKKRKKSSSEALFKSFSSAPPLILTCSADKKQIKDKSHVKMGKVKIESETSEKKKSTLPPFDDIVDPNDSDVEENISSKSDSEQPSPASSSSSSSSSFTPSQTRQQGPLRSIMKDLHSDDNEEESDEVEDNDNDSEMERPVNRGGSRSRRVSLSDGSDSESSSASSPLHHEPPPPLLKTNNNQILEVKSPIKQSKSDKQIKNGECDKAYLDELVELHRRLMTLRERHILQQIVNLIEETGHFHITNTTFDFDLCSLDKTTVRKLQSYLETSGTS
A1 inh – caspase 3/7 activation in MEF A1-2A-BIM cells, primary screen, A1 inhibitor project, cell-based, luminescence, HTS. Caspase-Glo 3/7 luminescence, 3 h; percent of clofoctol response, vehicle zero. caspase activation, % (test concentration not listed). actives 0.066% (n = 330,000). AID 2462, 2010;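 active means over half of replicate activation scores above 10%, or exactly half above 10 with the replicate mean above 10; inconclusive means replicate mean below 10 yet half the replicates above 10; inactive means over half of replicates below 10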;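 further: wells of about 30 µL received 50 nL stock; many hits fall short of the cut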
Ecoli rRNA inh – reduced GFP signal of wild-type E. coli, primary screen, bacterial rRNA inhibitor project, GFP/RFP fluorescence, OD600, single point; E. coli WT GFP vs humanized-ribosome RFP mutants, 24 h; stronger effect = lower value; DMSO median 0, no signal -100; GFP signal change (wild-type ribosome), % (no concentration beside the values); actives 1.6% (n = 350,000); AID 720706, 2013;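 active means significant combined selectivity score with lowered wild-type GFP, culture density cut under 30%, mutant RFP and density less affected; inactive means any of these conditions unmet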; further: one replicate is shown; some compounds called inactive have numbers as strong as hits
E coli growth – E. coli growth inhibition, primary screen, OD600 | actives 0.21% (n = 330,000) | Escherichia coli growth, 23 h; stronger effect = lower value | AID 1053175, 2014 | OD600 absorbance (test concentration not listed);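 active means OD600 absorbance below the run mean of sample wells minus 3.6 SD, in any replicate, cut at about 0.56 in these data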;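 further: stock transfer was 300 nL into about 60 µL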
T cruzi inh – inhibitors of intracellular T. cruzi growth, primary screen, luminescence, NIH3T3 host cells; actives 1.4% (n = 300,000); T. cruzi beta-gal in NIH3T3, 90 h; inhibition, % (no concentration beside the values);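 active means mean inhibition across valid replicates above about 55%, limit read from the data; inconclusive means mean below that limit but half or more replicates reach it; inactive means mean below it, under half of replicates reach it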;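 further: signal also drops with host cell toxicity which is not excluded here; 0% = plate median of DMSO wells and 100% = zero luminescence signal; higher percent means less beta-gal luminescence so fewer parasites; stock transfer was 50 nL into about 50 µL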
FGF22 binding – binders of human FGF22 protein, primary screen, FGF22 synaptogenesis inhibitor project, biophysical, thermal shift, single point | actives 1.5% (n = 340,000) | recombinant FGF22 thermal shift, SYPRO orange fluorescence; percent of sucrose octasulfate shift, DMSO zero | Fibroblast growth factor 22 (Homo sapiens), Q9HCT0 | calls only at 9.99 µM;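 active means melting point raised past a set limit in the mean and every replicate; inconclusive means no clear call; three in four hits are not shown here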
Target sequence (Q9HCT0 whole entry, looked up): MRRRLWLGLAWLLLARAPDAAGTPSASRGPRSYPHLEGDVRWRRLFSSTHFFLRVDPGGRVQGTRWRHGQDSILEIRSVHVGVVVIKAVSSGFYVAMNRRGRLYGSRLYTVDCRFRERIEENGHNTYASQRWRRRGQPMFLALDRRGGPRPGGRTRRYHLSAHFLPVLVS
Beta cell apopt – inhibitors of cytokine-induced beta cell apoptosis, primary screen, luminescence; protection from apoptosis, % (test concentration not listed); INS-1E cytokine-induced death, ATP luminescence, 48 h; percent of positive-control rescue, neutral wells zero; actives 0.8% (n = 300,000);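 active means all replicates at 75% or more, or half of them and the mean; inconclusive means half reach 75% but not the mean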;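 further: 0% = cytokine-treated negative control wells and 100% = positive control rescue; higher means more ATP so stronger rescue from cytokine killing; wells of about 40 µL received 100 nL stock; the first replicate is given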
UCH37 inh – inhibitors of human UCH37 deubiquitinase, primary screen, biochemical, Ub-AMC cleavage, fluorescence | Ubiquitin carboxyl-terminal hydrolase isozyme L5 (Homo sapiens), Q9Y5K5 | purified proteasome/UCH37 | inhibition, % (concentration not given with the values) | actives 0.33% (n = 330,000);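 active means mean of two replicates above 20%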;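 further: 0% = compound-free wells with enzyme and 100% = wells lacking proteasome; stock transfer was 100 nL into about 20 µL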
Target sequence (Q9Y5K5 whole entry, looked up): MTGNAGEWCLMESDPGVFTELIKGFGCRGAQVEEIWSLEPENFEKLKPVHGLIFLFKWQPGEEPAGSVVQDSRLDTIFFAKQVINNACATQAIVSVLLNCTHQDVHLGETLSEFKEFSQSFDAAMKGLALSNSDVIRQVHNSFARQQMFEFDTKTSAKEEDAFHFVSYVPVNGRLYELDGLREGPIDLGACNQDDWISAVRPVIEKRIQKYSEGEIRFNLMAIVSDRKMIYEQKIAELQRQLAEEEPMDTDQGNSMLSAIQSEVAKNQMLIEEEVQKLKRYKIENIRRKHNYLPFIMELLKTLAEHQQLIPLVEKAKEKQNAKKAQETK
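Material: Human UCH37 enzyme supplied as purified proteasome complex | Schedule: 30 min compound-proteasome preincubation then 25 min substrate reaction, room temperature | Detection: AMC fluorescence from Ub-AMC cleavage, excitation 355 nm, emission 460 nm | Benchmarks: Wells without proteasome as full block, compound-free enzyme plus substrate as uninhibited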
Ecoli rRNA inh OD600 – further read-out of Ecoli rRNA inh, marked with its call; OD600 change, %; measured here: OD600 growth;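 optical density of the mix in the first replicate; 0 = DMSO median and -100 = no signal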
Ecoli rRNA inh RFP – recorded beside Ecoli rRNA inh, whose call it bears; RFP signal change, %; measured here: RFP humanized mutant strains;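 first replicate; 0 = DMSO median and -100 = no signal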
Active calls of the source: *; i = inactive; ? = inconclusive; nt = not tested or not shown. An excerpt (hit frequency here may not be typical).

Structure	A1 inh	Beta cell apopt	T cruzi inh	Ecoli rRNA inh	Ecoli rRNA inh RFP	MLL AF4-AF9 inh	Ecoli rRNA inh OD600	FGF22 binding	E coli growth	UCH37 inh
COc1ccc(OC)c(S(=O)(=O)N2CCN(c3ccccn3)CC2)c1	-0.2	1	0	4	4.0	3.9	-4	i	0.67	4.6
CC1CCCN(C(=O)COC(=O)Cc2ccc(Cl)cc2)C1 (centres undefined)	0.9	-7	-5	-3	1.5	-0.6	-6	i	0.67	7.4
CC[C@H](C)Cc1cn([C@@H](CCCN=C(N)N)C(=O)NCCCCCCCCCCC(=O)N2CCNCC2)nn1	0.4	1	1	-37*	15*	-29	-16*	i	nt	2.2
O=C(COC(=O)CNC(=O)c1ccc(Cl)cc1Cl)NC1CCCCCCC1	-0.3	-5	-7	4	-0.9	-0.4	10	i	0.6	1.9
CCS(=O)(=O)N1CCN(c2ccccc2)CC1	0.8	-1	-10	11	-2.6	12	11	i	0.75	4.3
Cc1cccc(NC(=O)c2cccc(S(=O)(=O)Nc3c(C)n(C)n(-c4ccccc4)c3=O)c2)c1	nt	nt	nt	-14	11	0.5	-10	i	0.66	-0.5
O=C(N/N=C/c1cccs1)c1cc(C2CC2)nc2ccccc12	0.1	2	-18	3	-5.6	2.3	3	i	nt	nt
CCOC(=O)/C=C/C(=O)Nc1ccc(S(=O)(=O)Nc2c(C)cc(C)cc2C)cc1	1.1	-6	-20	-12	14	3.6	-12	i	0.74	1.7
CCN(C(=O)CSc1nc2ccccc2n1CC(C)C)c1c(N)n(Cc2ccccc2)c(=O)[nH]c1=O	nt	nt	nt	6	2.3	-0.5	-4	i	0.64	3.4
Cc1[nH]c(-c2ccc(F)cc2)cc1C(=O)N1CCN(c2ccc(Cl)cc2)CC1	0.1	-7	8	-8	23	3.0	-49	i	0.67	0.1
CNC(=S)N(CCCN(C)C)Cc1cc2cc3c(cc2[nH]c1=O)OCCO3	1.0	-3	-16	20	1.8	3.0	14	i	0.7	-120
Cc1ccnc2c1ccc1c(C)ccnc12	-0.8	102*	nt	nt	nt	nt	nt	nt	0.28*	3.5
COc1cc(/C=N/NC(=O)c2ccncc2)ccc1OCC(=O)Nc1ccccc1	0.2	-3	-21	4	0.2	-1.6	-1	i	nt	nt
O=C(NCC(=O)N(Cc1cccs1)C(C(=O)NC1CCCC1)c1ccco1)c1cccs1 (centres undefined)	0.5	-8	-13	nt	nt	nt	nt	nt	0.68	5.0
Cc1ccccc1OCCCC(=O)Nc1ccc(S(=O)(=O)Nc2onc(C)c2C)cc1	0.7	-9	-5	0	2.4	-1.6	-7	i	0.68	3.7
O=C(CNC(=O)c1cccs1)N/N=C/c1ccc(O)cc1O	-0.3	0	19	12	-0.4	-1.6	7	i	nt	nt
COc1ccc(OC)c(NC(=O)C(Sc2ccccc2)c2ccccc2)c1 (centres undefined)	-0.3	5	16	nt	nt	nt	nt	nt	0.79	2.2
O=C(CSc1nc2scc(-c3ccccc3)c2c(=O)[nH]1)N1CCCCC1	-0.3	-9	-10	-35*	-4.7*	-3.1	-14*	i	0.64	2.2
COCCNC(=O)CN(C(=O)CCC(=O)Nc1cc(C)on1)c1ccccc1C	-0.8	1	-4	nt	nt	nt	nt	nt	0.68	0.8
COc1ccc(CN(C(=O)c2cc3ccccc3oc2=O)C2CCCCC2)cc1OC	?	-2	5	nt	nt	nt	nt	nt	0.71	5.8

Later entries
Structure	A1 inh	Beta cell apopt	T cruzi inh	Ecoli rRNA inh	Ecoli rRNA inh RFP	MLL AF4-AF9 inh	Ecoli rRNA inh OD600	FGF22 binding	E coli growth	UCH37 inh
CCOC(=O)N1CCN(C(=O)CSc2nc(-c3cccc(C)c3)ns2)CC1	0.2	nt	12	nt	nt	nt	nt	nt	0.66	3.6
Clc1ncc(CSc2ccccc2)s1	-0.1	-19	6	12	0.9	-2.4	15	i	0.69	0.3
CN(C)S(=O)(=O)c1ccc(C(=O)Nc2ccccc2F)cc1	-0.6	3	-31	-7	-2.9	8.2	9	i	0.65	3.8
COc1ccc(NC(=O)CC(C)c2ccccc2)c([N+](=O)[O-])c1 (centres undefined)	1.1	-3	7	-26	-4.7	8.8	-15	i	nt	nt
COc1cc(/C=C(/NC(=O)c2ccccc2Cl)C(=O)O)cc(OC)c1OC	0.4	-11	-2	nt	nt	nt	nt	nt	nt	-1.8
C=CCn1c(SCC(=O)Nc2cc(OC)c(NC(=O)c3ccco3)cc2OC)nnc1-c1ccncc1	1.6	3	-7	nt	nt	nt	nt	nt	0.78	-1.7
COC(=O)[C@@]1(C)[C@H]2C(=O)N(C)C(=O)[C@H]2[C@H]2CN=C(SCc3ccccc3)N21	nt	nt	nt	9	-0.8	-8.4	11	nt	0.7	0.1
Clc1ccccc1CNCC1CCCO1 (centres undefined)	-0.3	-4	-18	2	-0.9	-0.2	4	i	0.6	-0.3
CN(C)CCN(CC1CCCN(Cc2ccccc2F)C1)C(=O)c1ccc(F)cc1 (centres undefined)	-0.2	0	10	16	1.6	1.8	16	i	0.7	1.3
C=CCn1c(C)cc(C(=O)CSc2nnc3c(Cl)cc(Cl)cn23)c1C	-0.3	2	6	nt	nt	nt	nt	nt	0.69	1.2
Cc1ccc2[nH]c(=O)c(CN(Cc3ccco3)S(=O)(=O)c3c(C)ccc4nsnc34)cc2c1	-1.2	0	32	-2	7.7	12	3	i	0.67	2.7
Cc1ccc(/C=C/C(=O)c2ccc(N3CCOCC3)cc2)s1	-2.5	0	-3	3	-2.1	2.5	1	i	0.69	5.3
Cn1nc(C(=O)NNC(=O)C2CSC3(C)CCC(=O)N23)c2ccccc2c1=O (centres undefined)	0.0	-5	-15	4	1.9	0.7	8	i	0.7	3.6
CC(C)c1ccc2[nH]c3nc(SCC(=O)N4CCOCC4)nnc3c2c1	-0.4	14	27	-2	-1.8	-1.8	-8	i	0.74	8.6
CCn1nc(C)c(CN2CCCC(CO)(Cc3cccc(Cl)c3)C2)c1C (centres undefined)	1.3	4	55*	6	4.3	2.8	3	i	0.66	4.6
COCCNC(=O)CCCn1c(=O)c2ccccc2n(Cc2cccc([N+](=O)[O-])c2)c1=O	0.5	-4	8	6	-0.6	8.1	-1	i	0.71	-0.3
Cc1cc(C)n2nc(SCCOc3ccccc3)nc2n1	-0.8	-3	-1	-4	-2.5	0.7	-3	i	0.69	-0.7
CC(C)Cc1nc(Nc2ccccc2C#N)c2nnn(Cc3ccccc3)c2n1	0.7	15	37	-13	-5.1	1.8	-16	i	0.72	-0.8
CC(C)(C)NC(=O)NC(=O)COC(=O)c1cc(=O)[nH]c2ccccc12	-0.1	3	-7	nt	nt	nt	nt	nt	0.75	-32
CC(C)Nc1nc(NNc2nc(Cl)nc(NC(C)(C)C)n2)nc(NC(C)C)n1	0.6	-1	-3	13	2.4	-1.6	19	i	0.65	1.2

The list goes on.
Structure	A1 inh	Beta cell apopt	T cruzi inh	Ecoli rRNA inh	Ecoli rRNA inh RFP	MLL AF4-AF9 inh	Ecoli rRNA inh OD600	FGF22 binding	E coli growth	UCH37 inh
Cc1c2cnn(-c3ccccc3)c(=O)c2c(C)n1CCCC(=O)N1CCN(C)CC1	-0.1	-11	-16	-1	-0.1	-1.7	5	i	0.77	5.5
CN(C)c1ccc(/C=C/C(=O)c2ccc3c(c2)OCO3)cc1	-5.4	-2	nt	nt	nt	-0.3	nt	i	nt	nt
CCC1CN(C(=O)NCc2ccc(F)cc2)c2ccccc2O1 (centres undefined)	0.9	-4	4	-8	2.1	-0.5	-13	i	0.69	3.6
O=S(=O)(Nc1nc2ccccc2s1)c1ccc(Cl)nc1	0.8	8	12	-7	-4.6	-4.2	-10	i	0.66	6.1
Cc1ccc(S(=O)(=O)N2CCCC2)cc1C(=O)NCCN1CCOCC1	0.8	-5	-5	nt	nt	-1.0	nt	i	0.7	4.8
O=C(c1cc2cc(F)ccc2[nH]1)N(Cc1cccnc1)CC1CCCN(C2CCCCC2)C1 (centres undefined)	0.0	0	28	1	2.0	6.3	1	i	0.71	3.1
COc1cc(Cl)cc(NC(=O)CCN2CCN(C)CC2)c1	0.1	0	-8	4	-4.7	nt	8	nt	0.72	1.8
CCCCn1c(SCC(=O)Nc2ccc(C)c(S(=O)(=O)N3CCOCC3)c2)nnc1C(CC)N(C)C (centres undefined)	-0.2	0	7	3	-1.5	-1.5	0	i	0.72	3.7
Clc1ccccc1/C=C/c1nc(-c2cccnc2)no1	-7.8	-12	-30	0	9.5	7.1	3	i	0.69	5.0
CN(Cc1ccccc1)S(=O)(=O)c1cc2c3c(c1)CCN3C(=O)CC2	-1.3	nt	-6	-1	-1.1	-19	-2	i	0.71	0.9
CN1CCN(S(=O)(=O)c2ccc3c4c(cccc24)C(=O)N3)CC1	-0.2	-1	-6	7	-1.6	1.9	9	i	0.71	-364
c1ccc2c(c1)NC(CN1CCOCC1)CO2 (centres undefined)	0.0	-3	5	nt	nt	nt	nt	nt	0.76	-1.3
CCCOc1ccc(NC(=O)C2CC(=O)N/C(=N/N=C(C)/C=C/c3ccc(N(C)C)cc3)S2)cc1 (centres undefined)	-0.9	7	16	nt	nt	nt	nt	nt	0.73	-7.4
CC(=O)N1CCN(C(=O)COC(=O)COc2ccc(C#N)cc2)CC1	1.2	-7	-4	2	-1.9	-2.0	6	i	0.71	5.9
C=CCC(C(=O)OC)(C(=O)OC)c1ccc(C(F)(F)F)cc1[N+](=O)[O-]	0.3	-2	-6	2	-2.2	-1.2	6	i	0.7	1.6
Cc1ccc(SCCCCN2CCOCC2)cc1	-0.5	1	-2	7	-1.7	-1.4	9	i	0.7	6.8
Cc1cc(C(=O)Nc2nccs2)c2cc(F)ccc2n1	0.6	-1	-5	25	3.0	nt	12	i	0.63	1.1
CCN(CC)C(=S)NC(=O)c1cc(OC)c(OC)c(OC)c1	0.5	-3	-30	10	-0.7	-5.6	4	i	0.67	0.4
CC1=NN(C(N)=S)C(=O)C1N=Nc1ccc([N+](=O)[O-])cc1 (centres undefined)	-6.2	3	-7	11	-2.4	nt	7	nt	0.7	20
COc1ccc(CNC(=O)[C@@H](NC(=O)C2CCN(C(=O)[C@@H]3CCCN3C(=O)OC(C)(C)C)CC2)C(C)C)cc1	0.5	-3	0	nt	nt	2.1	nt	i	0.63	0.2
COc1ccccc1NC(=O)NNC(=O)c1ccc2ccccc2c1O	1.3	-3	2	-14	-5.2	-1.8	-34	i	0.68	-106
